Bioassay records from PubChem.
VACV Venus inh: qHTS for Stage-Specific Inhibitors of Vaccinia Orthopoxvirus: Venus Reporter Primary qHTS; Vaccinia virus Venus reporter expression, fluorescence; AID 720580, 2013; Potency, µM (top dose mostly 36.5 µM), without a hit: at the top dose activity change, negative = inhibition, actives largely listed as inhibitors; actives 0.46% (n = 330,000); active means well fitted inhibition curve with a large enough effect; inconclusive means small, poorly fitted or top-dose-only effect; inactive means no such curve, though single readings can be large or run the other way; tested in A549 cells; also: nearly all actives have a fitted effect of over 30% in size; inactives centre near -10
Vaccinia mCherry: qHTS for Stage-Specific Inhibitors of Vaccinia Orthopoxvirus: mCherry Reporter Primary qHTS; Vaccinia virus mCherry reporter infection, fluorescence; about a quarter of the inactives have no number; actives 0.63% (n = 310,000); Potency, µM (highest dose often 36.5 µM), inactives show at the top dose activity change, negative = inhibition, most hits filed as inhibitors; active = well fitted inhibition curve with a large enough effect; inconclusive = small, poorly fitted or top-dose-only effect; inactive = no such curve, though single readings can be large or run the other way; tested in A549 cells; also: nearly all actives have a fitted effect of over 35% in size; inactives centre near -10
Numbers without * were called inactive; i = inactive; ? = inconclusive; / = not tested or not shown; & = joins results of further samples; [ ] = dose if it differs, or a comment. % is scaled to controls: 0 for no effect and ±100 for the full control effect; potency is read from the fitted curve at half-maximal effect. Random draw from the library. Share with any hit: about 0.82%.

Fields – VACV Venus inh	Vaccinia mCherry
CCc1ccccc1N(C)C(=O)C1CCCN(c2ncnc3c2nc2n3CCCCC2)C1 (stereo not drawn)
 : -17%	?
COc1cc(C(=O)Nc2nnc(SCC(=O)NCC3CCCO3)s2)cc(OC)c1OC (stereo not drawn)
 : -11%	-8%
O=c1oc(-c2ccc([N+](=O)[O-])cc2)nc2ccc(O)cc12
 : -13%	i
Cc1c(C2(O)CCCCC2)[nH]c2ccc(C(F)(F)F)cc12
 : -30%	-25%
CCOc1ccc(OCC)c(NS(=O)(=O)c2c(C)[nH]c(=O)[nH]c2=O)c1
 : -8%	-8%
COc1ccc(/C(C)=N/NC(=O)CNC(=O)C(c2ccccc2)c2ccccc2)c(OC)c1
 : ?	-15%
Cn1c(=O)cc(N2CCCCC2)[nH]c1=O
 : -5%	31%[activator]
Cc1ccccc1NC(=O)Nc1ccc(C(F)(F)F)cc1
 : -27%	i
COCCCNC(=O)C(=O)NC1CCCCCC1
 : -5%	-2%
Cc1ccc(-n2nnc(-c3nccn3C)n2)cc1
 : -15%	-15%
Cc1ccc(N=Nc2ccc(C)cc2NC(=O)Nc2ccccc2F)cc1
 : -23%	-19%
O=C(NCc1ccco1)C(c1ccccc1)N(C(=O)Cc1cccs1)c1ccccc1 (stereo not drawn)
 : ?	-25%
CC(C)(C)c1ccc(NC(=O)C(=O)C2C(=O)Nc3ccccc32)cc1 (stereo not drawn)
 : -21%	i
CC(C)c1c(C(=O)N(C)C2CCN(C)CC2)cnn1-c1nccc(-c2ccco2)n1
 : -9%	i
COC(=O)c1ccc(NC(=O)C(=O)N2CCN(C(=S)NCCc3ccccc3)CC2)cc1
 : -16%	-7%
O=C(CSc1ncn[nH]1)Nc1ccccc1Sc1ccc(Cl)cc1
 : -29%	/
COc1ccc(/C=N/Nc2nc(=O)[nH]nc2C)cc1[N+](=O)[O-]
 : -16%	i
Nc1nc(Nc2ccccc2Cl)cc(=O)[nH]1
 : -13%	i
Nc1cc(=O)n(Cc2ccccc2)c(=O)n1-c1ccc(Cl)cc1
 : -1%[7.34 µM]	i[7.34 µM]
O=C(COC(=O)CSc1ccc(Cl)cc1)Nc1ccc2[nH]c(=O)[nH]c2c1
 : -29%	-5%
Cc1ccc(CCNC(=O)C2COc3ccccc3C2)cc1 (stereo not drawn)
 : -11%[7.34 µM]	-5%
CCNC(=O)NC(=O)C(C)OC(=O)Cc1coc2cc3c(cc12)CCC3 (stereo not drawn)
 : 0%	-5%
CCN(CC)c1cc(Cl)nc(N)n1
 : -12%	i
O=C(Nc1ccc(-c2nnc(-c3ccco3)o2)cc1)C(c1ccccc1)c1ccccc1
 : ?	/
CC(C)Cn1c(SCC#N)nc2ccccc2c1=O
 : -14%&-12%	-13%&23%
CCOC(=O)N1CCC2(CC1)OC(=O)C(C)=C2C(=O)NCc1cccc(F)c1
 : -4%	-5%
CC(C)(C)N(NC(=O)OCc1ccccc1)C(=O)c1ccccc1Cl
 : -2%	i
CC(=O)Nc1ccc(NS(=O)(=O)c2c(C)nc3sccn3c2=O)cc1
 : -5%	-13%
Cc1ccc(Nc2n[nH]c(C)c2[N+](=O)[O-])cc1
 : -10%	-9%
Cc1ccc(-n2[nH]c(C)c(C=Nc3ccc4[nH]c(=O)[nH]c4c3)c2=O)cc1C
 : ?	/
CCCCc1nc2cc(C(=O)NCc3cn(C)nc3C)ccc2o1
 : -6%	i
CCc1ccc(NC(=O)C(=O)N/N=C(\C)CC(=O)NCCOC)cc1
 : -2%	i
COc1ccc(S(=O)(=O)N2CCN(CC(=O)Nc3cccc(F)c3)CC2)cc1
 : 0%	0%
COC(=O)C1=C(c2cccc(C#N)c2)C[C@@H]2CC[C@H]1N2C(=O)NCCOc1ccccc1
 : -12%	i
CC1CN(C2CCCCC2)C(=S)NC1=O (stereo not drawn)
 : 4%	-9%
COc1cccc(-c2cnc3c(NC=O)cc(-c4cccc(C(=O)N(C)C)c4)cn23)c1
 : -10%	-24%
O=C(CC1CCCC1)NCCc1cn2ccccc2n1
 : -2%	-13%
CC(=O)c1ccc(C(=O)N2CCc3c([nH]c4ccccc34)C2c2cccc(C)n2)s1 (stereo not drawn)
 : -19%	?
CCN(CC)C(=O)C1CCCN(c2ccc([N+](=O)[O-])cc2/C=N/NC(=O)c2ccccc2)C1 (stereo not drawn)
 : -4%	-6%
CCc1ccc(OCC(=O)N2CCN(Cc3ccc4c(c3)OCO4)CC2)cc1
 : 14%	i

Filtered by structure, those above with fluorine
Fields – VACV Venus inh	Vaccinia mCherry
Cc1c(C2(O)CCCCC2)[nH]c2ccc(C(F)(F)F)cc12
 : -30%	-25%
Cc1ccccc1NC(=O)Nc1ccc(C(F)(F)F)cc1
 : -27%	i
Cc1ccc(N=Nc2ccc(C)cc2NC(=O)Nc2ccccc2F)cc1
 : -23%	-19%
CCOC(=O)N1CCC2(CC1)OC(=O)C(C)=C2C(=O)NCc1cccc(F)c1
 : -4%	-5%
COc1ccc(S(=O)(=O)N2CCN(CC(=O)Nc3cccc(F)c3)CC2)cc1
 : 0%	0%

(list continues)
Fields – VACV Venus inh	Vaccinia mCherry
C#CCOCCOCCOCCNc1nc(N2CCN(C(=O)C([C@@H](C)CC)n3cc(C(N)Cc4ccc(O)cc4)nn3)CC2)nc(N2CCN(C(=O)[C@H](CCC(=O)O)n3cc(C(N)Cc4ccc(O)cc4)nn3)CC2)n1 (stereo partly drawn)
 : -9%	i
Cc1ccc(S(=O)(=O)N/N=C\C=C\c2ccccc2)cc1
 : -7%	-15%
Cc1ccc(NC(=O)Nc2cnccn2)c(C)c1
 : -21%	i
CCCc1cc(=O)oc2cc(OCC(=O)N3CCOCC3)c(Cl)cc12
 : 1%	1%
Cc1ccc(CSCCC(=O)NCc2ccc(F)cc2Cl)cc1
 : -7%	i
COc1ccc(CC(=O)N2CCN(c3ccccc3F)CC2)cc1OC
 : -11%	-3%
CCCSc1ncc(Cl)c(C(=O)Nc2scc(-c3ccc(C)cc3)c2C(=O)OCC)n1
 : -1%	-9%
NS(=O)(=O)c1cccnc1Nc1c(Cl)cccc1Cl
 : -4%	-13%
O=S(=O)(c1cccc(-c2nnc3n2CCCCC3)c1)N1CCOCC1
 : -17%	i
CCCn1c2ccccc2c2cnn(CC(=O)N3CCCC(C)C3)c(=O)c21 (stereo not drawn)
 : -15%	i
COc1ccc(CCNC(=O)CSc2ncnc3c2oc2ccccc23)cc1OC
 : -14%	/
CC(=O)Nc1ccc(NC(=S)NC(=O)c2ccc([N+](=O)[O-])cc2)cc1
 : -4%	i
CCO[C@H]1OC(C(=O)NC2CC2)=C[C@@H](c2c[nH]c3ccccc23)[C@@H]1CCCO
 : -7%	?
COc1ccccc1N1CCN(C(=O)c2cc(CC(C)C)on2)CC1
 : 11%	-9%
CC1CN(C(=O)CCN2C(=O)c3ccccc3C2=O)CC(C)O1 (stereo not drawn)
 : -19%	/
COC(=O)CSC1=NP(=S)(SCC(=O)OC)N2CCCC2=C1C#N (stereo not drawn)
 : -3%	-8%
Cc1ccc(SCC(=O)NC(C)c2ccccc2)cc1 (stereo not drawn)
 : -13%	-15%
CCOC(=O)[C@]12CCCC=C1N(Cc1cccc3ccccc13)C(=O)[C@H](CC(=O)N1CCN(C(=O)c3ccco3)CC1)C2
 : -25%	-27%
CCC(=O)Nc1nnc(SCc2cc(=O)c3cc(C)ccc3[nH]2)s1
 : -4%	-2%
O=C(NCCCCCCNC(=O)OCCO)OCCO
 : -2%	i
CCOC(=O)c1c(NC(=O)COC(=O)c2ccccc2NC)sc(C(=O)N(C)C)c1C
 : -2%	i
CCOC(=O)C1=C(O)C(=O)N(c2ccc(S(N)(=O)=O)cc2)C1c1ccccc1 (stereo not drawn)
 : -22%	/
COc1ccccc1N1CCN(CC(=O)Nc2ccccc2C(=O)NC(C)c2ccccc2)CC1 (stereo not drawn)
 : -6%	-3%
CSC1=C(C#N)C(CC(C)C)C2=C(CCCC2=O)N1 (stereo not drawn)
 : ?	?
Cc1ccc(NC(=O)Cn2c(CCC(=O)O)ccc2-c2cccs2)cc1Cl
 : -12%&-6%	-7%&-4%
COc1ccccc1NC(=O)Cn1c(=O)c(CNc2ccccc2)cc2cc(OC)c(OC)cc21
 : -11%	-13%
CC(C)(C)OC(=O)N(CCc1ccccc1)Cc1ccccc1OCc1cccc(NC(=O)C2CC2)c1
 : ?	i
Cc1cccc(C)c1NC(=O)C[n+]1cc(-c2ccccc2)n2c1CCC2
 : -10%	i
CCc1nnc(NC(=O)c2ccco2)s1
 : -21%	i
CCOC(=O)c1cccc(NC(=O)CCc2c(C)nc3c4cccnc4nn3c2C)c1
 : -6%	-6%
CCN1CCCC1CN(Cc1cc2c(C)cc(C)cc2[nH]c1=O)C(=O)NC1CCCCC1 (stereo not drawn)
 : -23%	/
O=C(CCS(=O)(=O)c1cc(Br)cc2c1N(C(=O)C1CC1)CC2)N1CCN(c2cccc(Cl)c2)CC1
 : -11%	-17%
COCCn1nnnc1C(CC(C)C)N1CCN(c2ccccc2)CC1 (stereo not drawn)
 : -13%	-8%
CC(C)C[C@H](N)C(=O)N1CCC(C(=O)N[C@H](C(=O)NCc2ccc(F)cc2)C(C)C)CC1
 : 1%	-2%
CN1CCN(c2ccc([N+](=O)[O-])c(-n3nc(-c4ccccc4)c4ccccc4c3=O)c2)CC1
 : ?	?
Nc1nnc(-c2cccc([N+](=O)[O-])c2)o1
 : -7%	0%
Cc1cc(CSc2ccccc2)ccc1NC(=O)c1ccc(Cl)c([N+](=O)[O-])c1
 : -8%	-7%
O=C(Nc1ccc(F)c(Cl)c1)c1cccnc1
 : 1%	-8%
OC[C@H]1O[C@@](CO)(O[C@H]2O[C@H](CO)[C@@H](O)[C@H](O)[C@H]2O)[C@@H](O[C@H]2O[C@H](CO)[C@@H](O)[C@H](O)[C@H]2O)[C@@H]1O
 : -5%	-15%
CCCn1c(S(=O)(=O)O)nc2ccccc21
 : 2%	i
O=C(CN1C(=O)S/C(=C\c2ccccc2Cl)C1=O)NCCCn1ccnc1
 : ?	-22%
CCCCCn1c(CCCNC(=O)CC)nc2ccccc21
 : -14%	-4%
Cc1ccn2c(=O)c(C(=O)NCCc3ccc(S(N)(=O)=O)cc3)c(O)nc2c1
 : -15%	-7%
CSCCC(NC(=O)c1cccc(S(=O)(=O)N2CCOCC2)c1)C(=O)Nc1cccc(C)c1 (stereo not drawn)
 : -8%	i
CCC/C=N/NC(=O)CNC(=O)c1ccccc1Cl
 : -16%	-16%
CCOc1cc(-c2nccc3cc(OC)c(OC)cc23)cc(OCC)c1OCC
 : -12%	-14%
CC(C)(C)NCC(O)COc1ccccc1C(C)(C)C (stereo not drawn)
 : -15%	-1%
Cc1ccc(S(=O)(=O)Nc2ccc(-n3c(C)nc4ccccc4c3=O)cc2)cc1
 : -4%	-15%
CC(C)NC(=O)c1nn(-c2ccccc2F)nc1CO
 : -7%	-7%
COC(=O)c1ccccc1NC(=O)/C=C/c1ccco1
 : -18%	i
Cn1c(=O)cc(OCC(=O)N2CCN(C3CCCCC3)CC2)c2ccccc21
 : 1%	0%
COC(=O)c1c(C)oc2ccc(N(C(=O)c3ccncc3)S(=O)(=O)c3cc(C)ccc3C)cc12
 : -28%	?
CC(=O)Nc1ccc(SC[C@H](CC(C)C)N2CCN(CC(C)C)CCC2=O)cc1
 : -18%	i
CSc1ccc(/C=N/N2CCN(Cc3ccc(C)cc3C)CC2)cc1
 : -25%	-26%
COc1ccc(C)cc1NC(=O)c1cnc2scc(C)n2c1=O
 : -12%	-2%
C#CC(C)(O)C1CC(CC(=O)O)C1(C)C (stereo not drawn)
 : -4%	-12%
N#C/C(=C\c1ccc(F)cc1)c1n[nH]c(Cn2cncn2)n1
 : 4%	/
CCOC(=O)C1(C)CCCN(C(=O)c2ccc3snnc3c2)C1 (stereo not drawn)
 : -3%	i
CC(C)Cc1nnc(NC(=O)CCC(=O)N2CCN(c3ccc(Cl)cc3)CC2)s1
 : -1%	-15%
O=C(COC(=O)c1ccccc1Br)NCc1cccs1
 : -6%	i

New compounds follow:
Fields – VACV Venus inh	Vaccinia mCherry
CC(=O)NC(=C(Cl)Cl)S(=O)(=O)c1ccccc1
 : 8.9µM*	7.9µM*
Cc1c(OCC(=O)N2CCC[C@@H]2C(=O)O)ccc2c3c(c(=O)oc12)CCC3
 : -3%	7%
O=C(/C=C/c1ccc(F)cc1)Nc1nc2n(n1)C(c1ccc(Cl)cc1)C=C(c1ccccc1)N2 (stereo not drawn)
 : -18%	-23%
O=C(O)C1CC=CCC1C(=O)N1CCCC1 (stereo not drawn)
 : -10%	/
CN(C)CC(O)CN(c1ccccc1)c1ccccc1 (stereo not drawn)
 : -11%	i
CCNC(=O)c1ccc(-n2nc(C)cc2-c2ccccc2)cc1
 : -12%	-22%
CCN(Cc1ccccc1)c1cc2c(c3c1ccn3C)C1CCC2C1 (stereo not drawn)
 : 5%	45%[activator]
CCN(CC)C(=O)CSc1nc2ccccc2c(=O)n1CC
 : -14%	/
Cc1cc(C)n(C(=O)CCCCCC(=O)n2nc(C)cc2C)n1
 : -8%	-3%
CCOc1ccc(C(=O)NCc2ccccc2OC)cc1
 : -4%	-12%
